Source: PubChem BioAssay
ALR inh: blocks human ALR sulfhydryl oxidase activity. purified ALR, DTT oxidation, H2O2 HRP-luminol luminescence. P55789. 290,000 tested, 3.8% active. inhibition, % (no concentration beside the values);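 active = mean and each replicate at 75% or more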;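 note: stock transfer was 7.5 nL into about 7.5 µL; 0% = neutral wells and 100% = wells with inactivated enzyme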
Target sequence (P55789 whole entry, looked up): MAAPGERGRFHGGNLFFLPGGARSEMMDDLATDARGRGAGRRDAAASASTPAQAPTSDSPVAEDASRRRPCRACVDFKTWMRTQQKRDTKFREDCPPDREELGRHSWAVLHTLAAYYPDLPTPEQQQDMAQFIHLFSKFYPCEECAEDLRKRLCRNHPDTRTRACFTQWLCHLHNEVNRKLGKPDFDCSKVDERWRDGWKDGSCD
E coli growth: inhibitors of Escherichia coli growth. OD600 absorbance (no concentration beside the values). OD600, 23 h; stronger effect = lower value. AID 1053175. 330,000 tested, 0.21% active;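 active = OD600 absorbance below the run mean of sample wells minus 3.6 SD, in any replicate, cut at about 0.56 in these data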;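 note: stock transfer was 300 nL into about 60 µL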
HNF4A DNA FP: change in binding of human HNF4 alpha to DNA; P41235; HNF4a-FITC DNA binding, fluorescence polarization, 1 h; activity change, % at 10 µM; 360,000 tested, 0.3% active; AID 1224865; in the data active = activity change above about 30%, passing the limit was not always enough;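 note: controls were the assay level and a saturating level of protein; the project sought stronger binding though the title names inhibitors; some compounds called inactive have numbers as strong as hits; positive values seem to mean higher polarization but the record does not say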
Target sequence (P41235 whole entry, looked up): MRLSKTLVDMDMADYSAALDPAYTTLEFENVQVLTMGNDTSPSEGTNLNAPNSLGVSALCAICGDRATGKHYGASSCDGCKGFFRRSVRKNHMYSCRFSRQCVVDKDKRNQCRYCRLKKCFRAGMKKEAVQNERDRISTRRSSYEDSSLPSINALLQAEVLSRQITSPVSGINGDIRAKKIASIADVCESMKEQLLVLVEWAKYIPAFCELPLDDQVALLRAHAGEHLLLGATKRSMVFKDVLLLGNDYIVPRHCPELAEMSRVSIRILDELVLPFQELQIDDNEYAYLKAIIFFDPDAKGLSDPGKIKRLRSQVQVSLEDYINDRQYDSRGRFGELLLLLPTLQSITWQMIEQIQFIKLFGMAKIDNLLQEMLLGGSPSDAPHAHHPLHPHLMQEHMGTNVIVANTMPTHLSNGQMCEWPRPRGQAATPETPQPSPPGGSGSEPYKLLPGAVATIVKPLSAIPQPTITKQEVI
FGF22 binding: shifts melting point of recombinant human FGF22 | recombinant FGF22 thermal shift, SYPRO orange fluorescence; percent of sucrose octasulfate shift, DMSO zero | calls only at 9.99 µM | 340,000 tested, 1.5% active;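 active = melting point raised past a set limit in the mean and every replicate; three in four hits are not shown here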
LANA-H2B inh: blocks KSHV LANA binding to histone H2A/H2B. Q9QR71. cell-free LANA-H2A/H2B peptide, fluorescence polarization. inhibition, % (concentration not given with the values). 320,000 tested, 0.6% active; in the data active = inhibition mostly above about 10%, no sharp cut-off; inactive = mostly below about 6.7%;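 note: stock transfer was 7.5 nL into about 10 µL; 0% = median of vehicle wells and 100% = median of positive control wells; one replicate is shown; the record names a cut of 25% in any replicate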
UCH37 DUB inh: inhibitors of human deubiquitinating enzyme UCH37; Q9Y5K5; purified proteasome/UCH37, Ub-AMC cleavage fluorescence; inhibition, % (no concentration beside the values); 330,000 tested, 0.33% active;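 active = mean of two replicates above 20%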;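 note: 0% = compound-free wells with enzyme and 100% = wells lacking proteasome; stock transfer was 100 nL into about 20 µL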
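system = Proteasome-associated human UCH37 deubiquitinase | amount = 0.15 nM proteasome as dispensed | medium = pH 7.4 Tris-HCl (50 mM) with ovalbumin, ATP-MgCl2, DTT | incubation = 30 min preincubation with enzyme, 25 min cleavage at room temperature | detection = AMC fluorescence 355/460 nm | read-out basis = percent inhibition | controls = no-proteasome and no-compound wells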
Beta2AR agonist: agonists of human beta-2 adrenergic receptor inducing internalization | response, % (concentration not given with the values) | Am2.2-beta2AR cells, FAP receptor internalization, flow cytometry; reference of the scale not given here | AID 504454 | 340,000 tested, 0.43% active;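 active = response above a set limit, near 3 SD of response in nonfluorescent compounds, cut at about 42% in these data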;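 note: stock transfer was 100 nL into about 11 µL; a reference agonist was the positive control; negative values mostly stem from fluorescent compounds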
Target sequence (P07550 whole entry, looked up): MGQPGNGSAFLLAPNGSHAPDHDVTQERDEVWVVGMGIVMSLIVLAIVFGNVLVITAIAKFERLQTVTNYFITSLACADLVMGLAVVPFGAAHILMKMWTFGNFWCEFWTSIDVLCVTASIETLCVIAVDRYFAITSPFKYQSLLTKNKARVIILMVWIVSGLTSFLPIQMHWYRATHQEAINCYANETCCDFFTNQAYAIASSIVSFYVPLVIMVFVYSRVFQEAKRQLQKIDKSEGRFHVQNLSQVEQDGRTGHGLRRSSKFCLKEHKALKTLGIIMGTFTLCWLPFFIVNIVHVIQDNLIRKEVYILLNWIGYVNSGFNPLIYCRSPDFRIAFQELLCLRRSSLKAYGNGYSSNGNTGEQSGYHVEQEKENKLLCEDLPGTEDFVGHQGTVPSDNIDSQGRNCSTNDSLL
* = called active by the depositor; i = inactive; nt = not tested or not shown.

ALR inh	E coli growth	HNF4A DNA FP	FGF22 binding	LANA-H2B inh	UCH37 DUB inh	Beta2AR agonist	mol
nt	0.68	-2.6	i	-1.9	6.2	5	COc1ccc(C(=O)Nc2c(-c3ccccc3)nc3ccccn23)c(OC)c1
4	0.67	0.1	i	1.9	2.9	-3	CC(Oc1ccc(Br)cc1Cl)C(=O)Nc1ccncc1 (centres undefined)
nt	0.72	6.9	i	nt	3.7	5	O=C(CNC(=O)c1cc(-c2ccccc2)nn1-c1ccccc1)Nc1ccccc1Br
0	0.63	2.5	nt	-9.7	1.8	17	Cc1ccc(OCC(O)Cn2c(=N)n(CCN3CCCCC3)c3ccccc32)cc1 (centres undefined)
-5	nt	2.1	i	-2.2	nt	0	CN(C(=O)c1ccc(Cl)cc1)C1CCS(=O)(=O)C1 (centres undefined)
-1	0.58	-0.6	i	0.6	16	6	CCOC(=O)c1cnc(-n2[nH]c(C)cc2=O)[nH]c1=O
-8	0.65	-2.1	nt	-1.1	3.3	-8	CS(=O)(=O)N(CC(=O)Nc1cccc(F)c1)c1cccc([N+](=O)[O-])c1
nt	0.68	-3.0	i	-0.2	11	3	CC1(C)Cc2ccccc2C(NNC(=O)c2ccc(Br)o2)=N1
15	0.72	0.0	nt	-40	6.2	7	Cc1cc(C(=O)CSc2n[nH]c(N)n2)c(C)n1-c1ccc2c(c1)OCO2
-9	0.66	0.9	nt	-6.8	1.4	7	CCOc1ccc(NC(=O)N2CCC(NC(=O)C(Cc3ccc(OC)c(OC)c3)NC(C)=O)CC2)cc1 (centres undefined)
92*	0.67	-1.6	i	-3.4	4.2	-7	Clc1ccc(-n2nnc(-c3nccs3)n2)cc1Cl
0	0.65	-1.9	nt	1.1	5.5	14	O=C(NC(Cc1c[nH]c2ccccc12)C(=O)O)c1ccc(F)cc1 (centres undefined)
26	0.8	2.6	nt	-14	1.7	2	CCCn1c(N)c(C(c2ccc(OC)cc2)N2CCN(c3ccccc3)CC2)c(=O)[nH]c1=O (centres undefined)
-9	0.68	-0.1	i	0.8	2.8	-25	O=C1CN(C(=O)/C=C/c2ccccc2F)c2ccccc2N1
nt	nt	51*	i	nt	nt	-73	Nc1cc2c(cc1Cl)-c1ccc([N+](=O)[O-])cc1C2=NO
nt	0.73	4.8	i	-2.9	7.2	10	O=S(=O)(Cc1cccc(F)c1)c1c[nH]c2ccccc12
nt	0.66	2.8	i	nt	0.8	0	CCOc1ccc(S(=O)(=O)N2CCN(C(=O)c3cc(C4CC4)nn3-c3ccccc3)CC2)cc1
21	0.73	3.9	nt	1.0	-5.3	nt	Nc1ncc(-c2cc3ccccc3oc2=O)s1
-6	0.72	2.6	i	0.3	3.0	2	COc1ccc(C(=O)Nc2ccnn2C2CCN(Cc3cn(C)nc3C)CC2)cc1
11	0.69	-0.1	i	-4.9	4.7	-1	Cc1cc(C(=O)NCc2ccc3c(c2)OCO3)c(C)o1
nt	0.72	-0.9	nt	nt	-0.5	-7	Cc1cccc(NC(=O)CSc2nnc(-c3ccccc3C)o2)c1
4	0.092*	21	i	8.5	88*	28	CCCCCCCCCCCCCCCC[n+]1cccc2ccccc21
nt	0.8	-1.0	i	6.5	0.6	-9	Cc1ccc(NS(=O)(=O)c2cn(C)c(=O)n(C)c2=O)cc1C
nt	0.7	5.1	i	-0.3	1.3	4	COc1cc(C(=O)NCC(=O)Nc2c(C)cccc2C)ccc1OCc1ccccc1
2	0.76	1.3	nt	4.0	4.7	-4	O=C(CC1C(=O)NCCN1C(=O)c1ccc(F)cc1)OCc1ccccc1 (centres undefined)
1	0.71	0.2	i	7.2	i	7	COCCNc1oc(/C=C/c2ccccc2OC)nc1S(=O)(=O)c1ccccc1
1	0.67	-1.5	i	-4.6	0.1	-13	COc1ccc(C(CNC(=O)c2cc3ccccc3o2)N2CCCC2)cc1 (centres undefined)
-2	0.72	3.6	nt	3.4	-114	-13	N#Cc1c(N)n(C2CCCCC2)c2nc3ccccc3nc12
nt	0.65	1.4	i	-6.2	2.6	0	CC1(C)Cc2nc(N)c(=O)sc2C1
46	0.74	-0.5	i	1.7	-432	-6	COc1cccc(CNC(=O)c2ccc3c(c2)N(C)CCS3)c1OC
99*	nt	-0.5	nt	-1.1	25*	13	Cc1ccc(S(=O)(=O)CCSc2cccc(C(=O)Nc3ccccc3C(=O)O)c2)cc1
-3	0.69	1.6	i	-1.2	-1.1	-1	CC1Sc2ccc(S(=O)(=O)CCC(=O)NC3CCCC(C)C3C)cc2NC1=O (centres undefined)
19	0.62	0.7	nt	2.3	3.4	2	O=C(O)CCCC(=O)Nc1ccc(C(=O)N2CCCCC2)cc1
-10	0.73	3.9	i	8.2	6.9	-10	COc1ccc(OC)c(S(=O)(=O)N2CCC(C(=O)NCc3ccc4c(c3)OCO4)CC2)c1
-2	nt	-0.6	i	-0.6	nt	-9	COc1ccccc1CN1CCN(Cc2nc(-c3cccs3)no2)CC1
-7	0.75	3.7	nt	1.5	1.4	9	Cc1ccccc1NC(=O)C1CCCN(S(=O)(=O)c2cccc3cccnc23)C1 (centres undefined)
-5	nt	-0.7	nt	0.0	nt	-2	O=C(Cc1n[nH]c(=O)[nH]c1=O)N/N=C/c1ccccc1
13	nt	3.5	i	3.9	nt	17	FC(F)Oc1ccc(C2N=C(c3ccccc3)NO2)cc1 (centres undefined)
0	0.78	-1.9	i	0.9	2.6	-23	C[C@H](CO)N1C[C@H](C)[C@@H](CN(C)C(=O)Nc2ccccc2)Oc2ccc(NS(=O)(=O)c3ccc(F)cc3)cc2C1=O
-4	0.7	2.4	nt	-2.9	6.6	-7	CC(=O)Nc1ccc(N2C(=O)c3ccc(C(=O)Nc4nnc(SCc5ccc(F)cc5)s4)cc3C2=O)cc1
-3	0.7	-2.8	i	1.8	1.4	-4	O=C(CCNC(=O)c1ccccc1Cl)NN=Cc1ccco1
2	0.73	-0.5	nt	-1.8	-3.7	4	O=C(Nc1ccc2c(c1)CCC2)C1CCCN(c2ncccn2)C1 (centres undefined)
-1	0.71	1.4	nt	2.8	5.5	-4	COc1ccc(CNc2ccc(C(=O)O)cc2)cc1
-2	0.71	5.3	i	0.7	3.0	27	CN1CCN(c2ccc(NC(=O)COc3cccc4ccccc34)cc2)CC1
86*	0.71	0.2	nt	-4.1	2.5	-142	COc1ccc(N2CCN(C(=O)CCNC(=O)c3ccc(C(C)(C)C)cc3)CC2)cc1
-18	0.72	1.5	nt	-2.5	-0.4	2	O=C(NCc1ccc2c(c1)OCO2)C1CCN(Cc2cnn(-c3ccccc3)c2-n2cccc2)CC1
-19	nt	-2.2	i	-1.7	nt	6	CCOC(=O)C[n+]1c(C)csc1C
6	0.68	2.2	i	-1.3	3.5	-15	CCOC(=O)C1(CCOc2ccccc2)CCN(C(=O)c2ccc(-n3cccn3)cc2)CC1
nt	0.67	-1.6	i	0.7	1.5	4	O=C(NC1CCCCC1)c1cc(-c2ccccc2O)on1
-12	0.61	-4.4	i	7.8	3.5	6	Cc1cc(NC(=O)CSCC(=O)Nc2ccc(Cl)c(C(F)(F)F)c2)no1
-1	0.62	0.5	i	-1.8	3.2	6	CCOC(=O)c1nnc2cc(C)nn2c1C
2	0.62	-2.2	nt	-5.8	2.9	-2	Cc1cccc(NC(NC(=O)c2ccccc2[N+](=O)[O-])C(Cl)(Cl)Cl)c1 (centres undefined)
-2	0.7	1.3	i	0.6	5.4	-6	COc1ccc(C(=O)Nc2ccccc2SCc2cc(=O)n3nc(C)sc3n2)cc1OC
20	0.7	0.9	nt	-0.8	1.3	43*	Cc1nc([N+](=O)[O-])c(Br)n1CC(=O)c1ccc2ccccc2c1
6	0.66	-0.9	i	0.8	4.8	-13	O=C(Nc1ccccc1Oc1cccnc1)C1CCCN(Cc2ccc(F)cc2)C1 (centres undefined)
-1	0.69	-1.7	nt	-0.3	4.3	-2	O=C(CCC1CCCC1)NCCCN1CCOCC1
-4	0.68	4.4	i	3.4	1.0	-6	O=C1CC(c2ccccc2Oc2cccc(Cl)c2)C(n2cncn2)C(=O)C1C1NCCc2ccccc21 (centres undefined)
nt	0.66	-5.3	i	-6.2	3.0	4	COc1ccc(C2(CNC(=O)c3ccccc3)CCOCC2)cc1
7	0.71	0.1	i	152*	5.0	-2	COc1ccc(N(CC(=O)Nc2cccc(N(C)S(C)(=O)=O)c2)S(=O)(=O)c2ccc(F)cc2)cc1
98*	0.7	3.5	i	5.8	2.5	6	CCOC(=O)C1=C(CS(=O)(=O)c2ccc(F)c(C)c2)NC(=O)NC1c1ccc(O)c(O)c1 (centres undefined)

5 entries already listed, sorted by number of heavy atoms, lowest first:
ALR inh	E coli growth	HNF4A DNA FP	FGF22 binding	LANA-H2B inh	UCH37 DUB inh	Beta2AR agonist	mol
20	0.7	0.9	nt	-0.8	1.3	43*	Cc1nc([N+](=O)[O-])c(Br)n1CC(=O)c1ccc2ccccc2c1
-2	0.71	5.3	i	0.7	3.0	27	CN1CCN(c2ccc(NC(=O)COc3cccc4ccccc34)cc2)CC1
98*	0.7	3.5	i	5.8	2.5	6	CCOC(=O)C1=C(CS(=O)(=O)c2ccc(F)c(C)c2)NC(=O)NC1c1ccc(O)c(O)c1 (centres undefined)
7	0.71	0.1	i	152*	5.0	-2	COc1ccc(N(CC(=O)Nc2cccc(N(C)S(C)(=O)=O)c2)S(=O)(=O)c2ccc(F)cc2)cc1
-18	0.72	1.5	nt	-2.5	-0.4	2	O=C(NCc1ccc2c(c1)OCO2)C1CCN(Cc2cnn(-c3ccccc3)c2-n2cccc2)CC1

Next section
ALR inh	E coli growth	HNF4A DNA FP	FGF22 binding	LANA-H2B inh	UCH37 DUB inh	Beta2AR agonist	mol
0	0.77	-0.1	nt	-1.1	4.5	6	N#Cc1c(-c2cccs2)cc(C2CC2)nc1SCC(N)=O
-4	0.7	13	nt	3.3	5.4	-1	Cc1[nH]c2ccccc2c1C(=O)CSc1nc2ncc(Cl)cc2[nH]1
-11	0.7	-2.2	i	-17	0.6	4	Cc1ccc(NC(=O)CSCC(=O)Nc2ccc(S(=O)(=O)N3CCOCC3)cc2)cc1
-22	0.69	1.5	i	2.0	1.5	-10	CCOc1ccc(C(=O)OCC(=O)NC(C)C)cc1
9	0.71	-2.1	i	2.2	1.9	1	COc1ccc(N(C(=O)c2ccc(Br)o2)C2C=CS(=O)(=O)C2)cc1 (centres undefined)
19	0.67	-0.3	i	3.0	-89	0	O=C1c2ccccc2NC(c2cc(Cl)cc(Cl)c2O)N1Cc1cccnc1 (centres undefined)
1	0.68	-2.6	i	-3.4	0.9	-6	CCOc1ccc(C/C(N)=N/n2cnnc2)cc1
nt	0.74	0.6	nt	1.3	3.2	-6	CCn1c(SCC(=O)c2cc(C)n(-c3ccc(C(=O)OC)cc3)c2C)nnc1-c1cccnc1
1	0.68	1.1	i	-0.9	6.0	-6	CC1CCN(C(=O)CCNS(=O)(=O)c2ccc(Cl)cc2)CC1
88*	0.7	-5.7	i	-4.2	1.0	0	O=C(CCc1ccccc1F)N1CCN(c2ccccc2)CC1
-5	0.67	-1.4	i	-1.7	1.2	1	N#Cc1ccc(OCC(O)CN2CCN(CC(O)COc3ccc(C#N)cc3)CC2)cc1 (centres undefined)
2	0.63	2.9	nt	-2.4	7.1	2	CCOC(=O)Cc1csc(NC(=O)c2cccs2)n1
-9	0.68	1.6	nt	5.0	0.5	0	CCCC(=O)c1cc(F)c(N2CCN(S(=O)(=O)c3ccccc3)CC2)cc1C
-2	nt	1.9	i	-0.9	4.5	-3	C[C@H]1CCC[C@]2(O[C@H](CCO)C[C@@H](O)[C@@H]2O)O1
28	0.63	1.2	nt	-1.7	8.7	-8	CC1CCN(C2=NC(=O)/C(=C/c3cn[nH]c3-c3ccccc3)S2)CC1

Compound profiles, as listed above:
N#Cc1ccc(OCC(O)CN2CCN(CC(O)COc3ccc(C#N)cc3)CC2)cc1 (centres undefined) in the list: ALR inh: -5; E coli growth: 0.67; HNF4A DNA FP: -1.4; FGF22 binding: i; LANA-H2B inh: -1.7; UCH37 DUB inh: 1.2; Beta2AR agonist: 1
CC1CCN(C(=O)CCNS(=O)(=O)c2ccc(Cl)cc2)CC1 in the list: ALR inh: 1; E coli growth: 0.68; HNF4A DNA FP: 1.1; FGF22 binding: i; LANA-H2B inh: -0.9; UCH37 DUB inh: 6.0; Beta2AR agonist: -6

The list is partial, so the mix of outcomes need not match the whole.
